Vaccinia inh: blocks a specific stage of Vaccinia orthopoxvirus infection, primary screen, cell-based, single point. AID 1053133, 2014. activity change (mCherry), % (no concentration beside the values). Vaccinia-infected cells, mCherry/Venus stage reporter fluorescence; stronger effect = lower value; some inactives read as strong as hits. actives 0.01% (n = 89,000);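 active = mCherry past -33% and 40 or more points under the early reporter, replicates agreeing; inconclusive = past -33% without that gap or agreement; tested in A549 cells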;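 also: scaled between vehicle wells and reference inhibitor wells; 23 nL library stock went into each well; one replicate is shown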
Vaccinia inh Venus: also measured in Vaccinia inh; calls as there; activity change (Venus), %; measured here: Venus reporter, other viral stage;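 negative = less Venus signal; first of two replicates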
* = called active by the depositor. An excerpt; count on the stated rates, not on these rows.

Screening COc1ccc(NC(=O)N(C)C[C@H]2Oc3ccc(NC(=O)Cc4cn(C)c5ccccc45)cc3C(=O)N([C@@H](C)CO)C[C@@H]2C)cc1 returned Vaccinia inh 16 and Vaccinia inh Venus 11.
COc1ccc(S(=O)(=O)N(C)C[C@H]2Oc3c(NC(=O)C4CCCCC4)cccc3C(=O)N([C@@H](C)CO)C[C@H]2C)cc1 was read as Vaccinia inh inconclusive.
COCC#Cc1cnc2c(c1)C(=O)N([C@H](C)CO)C[C@@H](C)[C@@H](CN(C)C(=O)C1CCCCC1)O2 was read as Vaccinia inh -1 and Vaccinia inh Venus -4.
Screening COCC(=O)Nc1ccc2c(c1)OC[C@H](C)N(C(C)=O)C[C@@H](C)[C@H](OC)CN(C)C2=O returned Vaccinia inh -5 and Vaccinia inh Venus -5.
For COc1cccc(S(=O)(=O)N[C@H]2CC[C@H](CC(=O)NCc3ccncc3)O[C@@H]2CO)c1 the results were Vaccinia inh 3 and Vaccinia inh Venus 0.
`COCC#Cc1ccc([C@H]2[C@@H](CO)N3CCCCN(Cc4ccncc4)C[C@H]23)cc1` gave Vaccinia inh 9 and Vaccinia inh Venus 0.
For CO[C@H]1CN(C)C(=O)c2ccc(NC(=O)C3CCC3)cc2OC[C@H](C)N(Cc2nccs2)C[C@@H]1C the results were Vaccinia inh 7 and Vaccinia inh Venus 13.
`Cc1ccc(S(=O)(=O)Nc2ccc3c(c2)C(=O)N([C@@H](C)CO)C[C@H](C)[C@@H](CN(C)Cc2ccc4c(c2)OCO4)OCCCC[C@@H](C)O3)cc1` gave Vaccinia inh inconclusive.
`C[C@H]1CN([C@@H](C)CO)C(=O)c2ccccc2-c2ccccc2CO[C@H]1CN(C)Cc1ccc(F)cc1` gave Vaccinia inh -7 and Vaccinia inh Venus -14.
Screening O=C(C1=C[C@H](C2CCCCC2)C[C@H](OCCCCO)O1)N1CCOCC1 returned Vaccinia inh 5 and Vaccinia inh Venus 2.
`CCC(=O)N1[C@H](C(=O)NC2CCCCC2)[C@@H](CO)[C@@H]2Cn3c(cccc3=O)[C@@H]21` gave Vaccinia inh 17 and Vaccinia inh Venus 11.
C[C@@H]1CCCCO[C@@H](CN(C)C(=O)Nc2cccc3ccccc23)[C@@H](C)CN([C@H](C)CO)C(=O)c2cc(NC(=O)c3ccncc3)ccc2O1 was read as Vaccinia inh 26 and Vaccinia inh Venus 17.
For C[C@@H]1CN([C@@H](C)CO)C(=O)c2cc(NC(=O)Nc3ccc4c(c3)OCO4)ccc2O[C@@H](C)CCCCO[C@@H]1CN(C)Cc1ccncc1 the results were Vaccinia inh -2 and Vaccinia inh Venus 4.
C[C@H](CO)N1C[C@H](C)[C@@H](CN(C)Cc2ccc3c(c2)OCO3)Oc2ccc(NC(=O)NC3CCCCC3)cc2C1=O was read as Vaccinia inh 4 and Vaccinia inh Venus 5.
Screening C[C@@H]1CN([C@H](C)CO)C(=O)c2cccc(NS(=O)(=O)c3cn(C)cn3)c2O[C@@H]1CN(C)C(=O)Nc1ccccc1 returned Vaccinia inh 28 and Vaccinia inh Venus 18.
Screening C[C@H]1CN([C@@H](C)CO)C(=O)c2cccc(NC(=O)NC3CCCCC3)c2O[C@H]1CN(C)S(=O)(=O)c1cccs1 returned Vaccinia inh -9 and Vaccinia inh Venus -6.
C[C@H]1CN([C@@H](C)CO)C(=O)c2cc(NS(=O)(=O)c3ccc(F)cc3)ccc2O[C@H]1CN(C)Cc1ccc(Oc2ccccc2)cc1 was read as Vaccinia inh -4 and Vaccinia inh Venus 3.
Screening CO[C@@H]1CN(C)C(=O)c2cc(NC(=O)NC3CCCCC3)ccc2OC[C@@H](C)N(CCc2ccccc2)C[C@H]1C returned Vaccinia inh -30 and Vaccinia inh Venus -13.
For CO[C@@H]1CN(C)C(=O)c2cc(NC(=O)C3CCC3)ccc2OC[C@H](C)N(Cc2ccc(F)cc2)C[C@H]1C the results were Vaccinia inh inconclusive.
Screening C[C@@H]1CCCCO[C@@H](CN(C)Cc2ccc3c(c2)OCO3)[C@H](C)CN([C@@H](C)CO)C(=O)c2cc(NC(=O)Nc3ccccc3)ccc2O1 returned Vaccinia inh inconclusive.
C/C=C/c1ccc([C@@H]2[C@@H](CO)N3CCCCN(C(=O)Cc4ccncc4)C[C@H]23)cc1 was read as Vaccinia inh -1 and Vaccinia inh Venus 1.
For COCC(=O)N1C[C@@H](C)[C@@H](OC)CN(C)C(=O)c2cc(NC(=O)c3cc(C)on3)ccc2OC[C@H]1C the results were Vaccinia inh 8 and Vaccinia inh Venus 14.
For COc1ccc(CN(C)C[C@H]2Oc3ccc(NS(=O)(=O)c4cn(C)cn4)cc3CC(=O)N([C@H](C)CO)C[C@H]2C)cc1 the results were Vaccinia inh 7 and Vaccinia inh Venus 2.
`O=C(Cc1ccccc1)N1CC(=O)N2[C@H](CO)[C@H](c3ccc(C#CCc4ccccc4)cc3)[C@H]2C1` gave Vaccinia inh -16 and Vaccinia inh Venus -16.
C[C@H]1CN([C@@H](C)CO)S(=O)(=O)c2ccc(-c3ccncc3)cc2O[C@@H]1CN(C)S(=O)(=O)c1ccccc1F was read as Vaccinia inh -15 and Vaccinia inh Venus -9.
For CS(=O)(=O)Nc1ccc2c(c1)[C@H]1C[C@H](CC(=O)NCCc3ccccc3)O[C@@H](CO)[C@H]1O2 the results were Vaccinia inh 1 and Vaccinia inh Venus -1.
C[C@@H]1CN([C@H](C)CO)C(=O)c2cc(NC(=O)c3ccccc3)ccc2O[C@@H](C)CCCCO[C@@H]1CN(C)C(=O)CCCN(C)C was read as Vaccinia inh 16 and Vaccinia inh Venus 7.
COCCNC(=O)[C@@H]1[C@@H](CO)[C@@H]2Cn3c(ccc(-c4ccccc4)c3=O)[C@H]1N2C(=O)NC(C)C was read as Vaccinia inh 4 and Vaccinia inh Venus 8.
For O=C(C[C@@H]1C[C@H]2c3cc(NC(=O)CC4CC4)ccc3O[C@H]2[C@@H](CO)O1)NCCN1CCCCC1 the results were Vaccinia inh 2 and Vaccinia inh Venus 0.
C[C@H](CO)N1C[C@H](C)[C@@H](CN(C)Cc2ccc(Cl)c(Cl)c2)OCc2ccccc2-c2ccccc2C1=O was read as Vaccinia inh inconclusive.
`CO[C@H](CN(C)Cc1nccs1)[C@H](C)CN([C@@H](C)CO)S(=O)(=O)c1ccc(F)cc1` gave Vaccinia inh -2 and Vaccinia inh Venus -2.
`Cn1cnc(S(=O)(=O)N[C@H]2C=C[C@@H](CC(=O)N3CCN(c4ccccc4)CC3)O[C@@H]2CO)c1` gave Vaccinia inh 1 and Vaccinia inh Venus 1.
`Cc1noc(C)c1NC(=O)Nc1cccc2c1O[C@H](CN(C)S(=O)(=O)c1ccc(Cl)cc1)[C@H](C)CN([C@H](C)CO)C2=O` gave Vaccinia inh 14 and Vaccinia inh Venus -1.
C[C@@H]1CN([C@@H](C)CO)C(=O)c2cccc(NS(=O)(=O)c3cn(C)cn3)c2O[C@H]1CN(C)Cc1ccc(C(F)(F)F)cc1 was read as Vaccinia inh 11 and Vaccinia inh Venus 6.
O=C(c1cccc(F)c1)N1C[C@H]2[C@@H](c3ccccc31)[C@H](CO)N2C(=O)c1ccccn1 was read as Vaccinia inh 19 and Vaccinia inh Venus 21.
`C[C@H](CO)N1C[C@H](C)[C@H](CN(C)C(=O)Nc2cccc3ccccc23)Oc2ccc(NS(=O)(=O)c3cccs3)cc2C1=O` gave Vaccinia inh 8 and Vaccinia inh Venus 9.
`CO[C@@H]1CN(C)C(=O)c2ccc(NC(=O)C3CCOCC3)cc2OC[C@@H](C)N(S(=O)(=O)c2ccc(C)cc2)C[C@H]1C` gave Vaccinia inh -3 and Vaccinia inh Venus -1.
Screening OC[C@@H]1[C@@H](c2ccc(-c3cccnc3)cc2)[C@H]2CN(CC3CC3)CCCCN12 returned Vaccinia inh 12 and Vaccinia inh Venus 9.
For CN1[C@@H]2c3ccc(-c4cccc(F)c4)c(=O)n3C[C@H]1[C@H](CO)[C@H]2C(=O)Nc1nccs1 the results were Vaccinia inh 14 and Vaccinia inh Venus 5.
`C/C=C/c1ccc([C@H]2[C@@H](CO)N3C(=O)CN(C(=O)Nc4cccc(OC)c4)C[C@@H]23)cc1` gave Vaccinia inh -33 and Vaccinia inh Venus -31.
For COc1ccccc1C#Cc1ccc([C@@H]2[C@H](CO)N3CCCCN(C(=O)C4CCCC4)C[C@@H]23)cc1 the results were Vaccinia inh inconclusive.
C[C@@H]1CN([C@H](C)CO)C(=O)c2cc(NS(=O)(=O)c3cn(C)cn3)ccc2O[C@H]1CN(C)C(=O)Nc1ccc2c(c1)OCO2 was read as Vaccinia inh -1 and Vaccinia inh Venus 0.
Screening C/C=C/c1ccc2c(c1)O[C@@H](CN(C)C(=O)Cc1ccncc1)[C@@H](C)CN([C@H](C)CO)S2(=O)=O returned Vaccinia inh -20 and Vaccinia inh Venus -7.
Screening C/C=C/c1ccc(C2[C@H]3CNC[C@@H]2N3C(=O)NC(C)C)cc1 (stereo partly drawn) returned Vaccinia inh -2 and Vaccinia inh Venus -4.
Screening C[C@@H]1CCCCO[C@@H](CN(C)S(=O)(=O)c2cn(C)cn2)[C@H](C)CN([C@@H](C)CO)C(=O)c2cc(NC(=O)c3ccncc3)ccc2O1 returned Vaccinia inh 8 and Vaccinia inh Venus 4.
`Cc1ccccc1CN(C)C[C@@H]1OCc2cn(nn2)CCCC(=O)N([C@H](C)CO)C[C@H]1C` gave Vaccinia inh -4 and Vaccinia inh Venus 1.
For CN1CCN(C(=O)C[C@@H]2CC[C@@H]3[C@H](COc4ccc(NC(=O)C5CCOCC5)cc4C(=O)N3C)O2)CC1 the results were Vaccinia inh 3 and Vaccinia inh Venus 6.
For Cc1noc(C)c1NC(=O)N(C)C[C@H]1Oc2c(NS(C)(=O)=O)cccc2C(=O)N([C@@H](C)CO)C[C@H]1C the results were Vaccinia inh 18 and Vaccinia inh Venus 14.
For CO[C@@H]1CN(C)C(=O)c2ccc(NC(=O)C3CCC3)cc2OC[C@@H](C)N(Cc2ccncc2)C[C@@H]1C the results were Vaccinia inh -4 and Vaccinia inh Venus 4.
`CCS(=O)(=O)N1CCC2(CC1)CN(Cc1ccc3c(c1)OCO3)[C@H](CO)c1c2c2ccc(OC)cc2n1C` gave Vaccinia inh -7 and Vaccinia inh Venus -18.
For CCCN(C)C[C@H]1OCCCC[C@@H](C)Oc2ccc(NS(=O)(=O)c3cccs3)cc2C(=O)N([C@@H](C)CO)C[C@@H]1C the results were Vaccinia inh -8 and Vaccinia inh Venus -6.
C[C@H](CO)N1C[C@H](C)[C@H](CN(C)S(=O)(=O)c2cccs2)Oc2c(NS(=O)(=O)c3ccccc3)cccc2C1=O was read as Vaccinia inh 1 and Vaccinia inh Venus 2.
For C[C@@H]1CN([C@H](C)CO)C(=O)c2cc(Br)cnc2O[C@H]1CN(C)CC1CCCC1 the results were Vaccinia inh 16 and Vaccinia inh Venus 3.
Screening COc1cccc(-c2ccc3c(c2)O[C@H](CN(C)C(=O)C2CCCCC2)[C@@H](C)CN([C@@H](C)CO)S3(=O)=O)c1 returned Vaccinia inh inconclusive.
CCCNC(=O)[C@H]1[C@H](CO)[C@H]2Cn3c(cccc3=O)[C@H]2N1C was read as Vaccinia inh 12 and Vaccinia inh Venus 5.
Screening COc1ccccc1C(=O)Nc1ccc2c(c1)C(=O)N(C)C[C@H](OC)[C@H](C)CN(C)[C@H](C)CO2 returned Vaccinia inh 9 and Vaccinia inh Venus -1.
`CC(C)CC#Cc1cnc2c(c1)C(=O)N([C@@H](C)CO)C[C@@H](C)[C@H](CN(C)Cc1cccc(F)c1)O2` gave Vaccinia inh -31 and Vaccinia inh Venus -26.
For Cc1ccccc1-c1ccc2c(c1)O[C@H](CN(C)C(=O)Nc1ccccc1)[C@H](C)CN([C@@H](C)CO)S2(=O)=O the results were Vaccinia inh inconclusive.
For CCNC(=O)Nc1ccc2c(c1)C(=O)N(C)[C@@H]1CC[C@@H](CC(=O)NC3CCCCC3)O[C@@H]1CO2 the results were Vaccinia inh 8 and Vaccinia inh Venus 3.
`Cc1noc(C)c1S(=O)(=O)N(C)C[C@H]1OCCCC[C@@H](C)Oc2ccc(NS(=O)(=O)c3cn(C)cn3)cc2C(=O)N([C@H](C)CO)C[C@@H]1C` gave Vaccinia inh 13 and Vaccinia inh Venus 3.
C[C@@H]1CN([C@H](C)CO)C(=O)c2cc(C#Cc3cccc(F)c3)cnc2O[C@H]1CN(C)C(=O)C1CC1 was read as Vaccinia inh 0 and Vaccinia inh Venus -1.
COc1ccccc1-c1cnc2c(c1)C(=O)N([C@H](C)CO)C[C@H](C)[C@@H](CN(C)C)O2 was read as Vaccinia inh 20 and Vaccinia inh Venus 7.
COCC(=O)N1[C@H](C(=O)Nc2ccccc2)[C@@H](CO)[C@@H]2Cn3c(ccc(-c4ccncc4)c3=O)[C@@H]21 was read as Vaccinia inh 5 and Vaccinia inh Venus -1.

Pulled one by one from above:
CCCNC(=O)[C@H]1[C@H](CO)[C@H]2Cn3c(cccc3=O)[C@H]2N1C was read as Vaccinia inh 12 and Vaccinia inh Venus 5.
For CCNC(=O)Nc1ccc2c(c1)C(=O)N(C)[C@@H]1CC[C@@H](CC(=O)NC3CCCCC3)O[C@@H]1CO2 the results were Vaccinia inh 8 and Vaccinia inh Venus 3.
COc1ccccc1-c1cnc2c(c1)C(=O)N([C@H](C)CO)C[C@H](C)[C@@H](CN(C)C)O2 was read as Vaccinia inh 20 and Vaccinia inh Venus 7.
For CO[C@@H]1CN(C)C(=O)c2ccc(NC(=O)C3CCC3)cc2OC[C@@H](C)N(Cc2ccncc2)C[C@@H]1C the results were Vaccinia inh -4 and Vaccinia inh Venus 4.
For C[C@@H]1CN([C@H](C)CO)C(=O)c2cc(Br)cnc2O[C@H]1CN(C)CC1CCCC1 the results were Vaccinia inh 16 and Vaccinia inh Venus 3.
For Cc1ccccc1-c1ccc2c(c1)O[C@H](CN(C)C(=O)Nc1ccccc1)[C@H](C)CN([C@@H](C)CO)S2(=O)=O the results were Vaccinia inh inconclusive.

Bioassay records from PubChem BioAssay.
